# Bioassay records from PubChem.
# HTT promoter inh: Primary qHTS for Identification of Small Molecule Inhibitors of Huntingtin Promoter Activity; HEK293 HTT promoter firefly luciferase reporter (activity 0% = vehicle and -100% = no light), 24 h; Potency, µM (highest dose often 57.5 µM), inactives show at the highest dose activity change, negative = inhibition, hits mostly inhibitors; 48,000 tested, 0.93% active; AID 1508623, 2021; active = well fitted inhibition curve with a large enough effect; inconclusive = small, poorly fitted or top-dose-only effect; inactive = no such curve, though single readings can be large or run the other way; note: nearly all actives have a fitted effect of over 50% in size
#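 HEK293 luciferase promoter-reporter cells (2,500/well) plated 24 h, then compounds added at up to 57.5 uM final for 24 h at 37 °C. Firefly luminescence by Dual-Glo, normalized to vehicle (0%) and zero RLU (-100%).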
# PMP22 txn: Cell-based coincidence reporter assay to measure PMP22 gene transcription in S16 Pmp22-F2sN cells - Primary screen; Potency, µM (highest dose often 57.5 µM), without a hit: at the highest dose activity change, negative = inhibition, hits mostly inhibitors; AID 1508649, 2021; S16 Pmp22-F2sN Schwann cells (luciferase reporters placed in the Pmp22 gene), FLuc/NLuc coincidence luminescence, 24 h; 43,000 tested, 2% active; active = clear falling dose curves in both reporters; inconclusive = both reporters move, but less clearly or upward; inactive = either reporter flat; the % is the NLuc reporter signal; note: % is set by controls: 0 for no effect and ±100 for the full control effect; some results filed as inactive show a strong effect at the top dose
#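 S16 Schwann cells carrying FLuc/NLuc coincidence reporter in the Pmp22 3' UTR treated with compound 24 h at 37C; FLuc then NLuc luminescence read sequentially by dual-luciferase reagents.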
# * = called active by the depositor; u = inconclusive; x = not tested or not shown; [ ] = dose if it differs, or a comment. Potency is the fitted concentration of half-maximal effect.
SMILES,HTT promoter inh,PMP22 txn
CCOC(=O)c1ccccc1NC(=O)CSc1ccc(-c2cccs2)nn1,-22%,u
Cc1sc2ncn(CC(=O)N3CCN(c4ccccc4F)CC3)c(=O)c2c1S(=O)(=O)N1CCC(C)CC1,-9%,-58%
CCOc1ccc(S(=O)(=O)N(C(C)=O)c2ccc3oc(C)c(C(=O)OC)c3c2)cc1,2.5µM*,5.4µM*
CCC(=O)N1CCc2cc(S(=O)(=O)CCC(=O)NCc3ccc(C)cc3)ccc21,4%,0%
COc1ccc(C)cc1NC(=O)CN1C(=O)COc2ccc(S(=O)(=O)N3CCOCC3)cc21,6%,-6%
Cc1ccc2nc(-c3ccccc3F)c(Nc3ccc(Cl)cc3)n2c1,-18%,-37%
COC(=O)c1c(NC(=O)c2c(OC)cccc2OC)sc2c1CCCC2,u,-15%
CC1=C(C(=O)Nc2cccnc2)C(c2ccc(C)cc2)n2nc(SCc3ccccc3F)nc2N1 (stereo unspecified),-3%,-8%
CCN(CC)c1ccc(NC(=O)c2cc(CN3CCCC3)on2)c(C)c1,-13%,-36%
CC(=O)c1ccc(N2CCN(C(=O)c3cc4c(s3)-c3ccccc3OC4)CC2)cc1,-2%,-35%
Cc1cc2nn(-c3ccc(F)cc3)nc2cc1NC(=O)c1cccc2c(Cl)cccc12,-12%,9%
CCOC(=O)c1c(NC(=O)/C=C/c2ccc(OC)cc2)sc2c1CCC(C)C2 (stereo unspecified),-12%,8%
O=C(OCC1(COC(=O)c2cccnc2)CCCC(COC(=O)c2cccnc2)(COC(=O)c2cccnc2)C1O)c1cccnc1,9%,x
CN(C)c1ccc(CNC(=O)Cc2ccc(NC(=O)N3CCCCc4ccccc43)cc2)cc1,-6%,u
O=C(c1ccc(F)cc1F)N1CCC(c2nc(-c3ccc(S(=O)(=O)N4CCCC4)cc3)no2)CC1,-2%,-6%
COC(=O)C(Cc1c[nH]c2ccccc12)NC(=O)COc1cccc(C)c1 (stereo unspecified),0%,-3%
Cc1ccc2c(c1)C(=O)OC(C(=O)Nc1ncc(Cc3ccccc3Cl)s1)C2 (stereo unspecified),-7%,0%
Clc1ccc(-n2ncc3c(NC4CCCC4)ncnc32)cc1,u,u
CCOc1ccc(NC(=O)c2ccc(NC(=O)CCS(=O)(=O)c3cccs3)cc2)cc1,-25%,2%
Cc1ccc(NC(=O)c2ccc3snnc3c2)cc1Cl,38%[activator],-2%
Cc1ccc2oc3c(c(=O)c2c1)C1(C(=O)N(C)c2ccccc21)N(CCCO)C3=O (stereo unspecified),-15%,-13%
CCN1CCN(c2c(S(=O)(=O)c3ccccc3)cnc3ccc(Cl)cc23)CC1,-7%,u
Cc1ccccc1NC(=O)CSc1nc2ccc(NC(=O)c3ccco3)cc2s1,-16%,u
CCCc1cc(=O)oc2cc(C)c3c(-c4cccc(OC)c4)coc3c12,5%,-10%
N#C/C(=C\c1ccc(-c2ccc(Br)cc2)o1)C(=O)Nc1ccccc1O,9%,-1%
# Next part.
SMILES,HTT promoter inh,PMP22 txn
CCOC(=O)Cn1c(=O)n(-c2ccccc2OC)c2nc(-c3cccc(F)c3)nc(C(N)=O)c21,-7%,-18%
CCn1ccc2cc(S(=O)(=O)N3CCC(C(=O)NCCc4ccccc4Cl)CC3)ccc21,-9%,u
FC(F)(F)c1cc(-c2ccccc2)nc2cc(-c3ccc(Br)cc3)nn12,-1%,4%
COc1ccccc1NC(=O)C(Cc1ccccc1)NS(=O)(=O)c1ccc2c(c1)CCN2C(C)=O (stereo unspecified),-16%,-2%
CC(=O)Nc1ccc(Nc2ncnc3c2cnn3C)cc1,44%[activator],u
CCc1ccc(NC(=O)c2ccc(CNS(=O)(=O)c3ccc4c(c3)C(C)(C)C(=O)N4C)cc2)cc1,u,-1%
CC(C)c1ccc(CNc2nc(-c3ccco3)nn2S(=O)(=O)c2ccc3ccccc3c2)cc1,18%,7%
CC(=O)c1cccc(NC(=O)c2cccn2-c2nnc(N3CCCCC3)s2)c1,-9%,-22%
Cc1ccccc1NC(=O)CSc1nnc(C)c(=O)[nH]1,-14%,-30%
CCn1c(=N)n(CC(O)COc2ccccc2)c2ccccc21 (stereo unspecified),-7%,u
CC1CCCCN1c1nc(-c2ccc(C(C)(C)C)cc2)nc2ccccc12 (stereo unspecified),u,-14%
Cc1ccc2c(c1)cc1c(=O)n(CC(=O)N3CCCCC3)nc(C)n12,-6%,-17%
COc1ccc(C2c3c(oc4cc(C)cc(C)c4c3=O)C(=O)N2Cc2ccco2)cc1OC (stereo unspecified),0%,2%
Cc1nnc(C(C)C)n1C1C[C@H]2CC[C@@H](C1)N2CC[C@H](NC(=O)C1CCC(F)(F)CC1)c1ccccc1 (stereo partly specified),-1%,x
Cc1noc(Cn2c(=O)c3cc4c(cc3n(CC(=O)Nc3ccccc3F)c2=O)OCO4)n1,-14%,45%
O=C(O)c1ccc2c(c1)N(Cc1ccc(F)cc1Cl)C(=O)c1ccccc1S2,-17%,-1%
O=C(Nc1ccc(F)cc1F)c1cc2ccc3cccnc3c2[nH]1,21%,-13%
CCOc1ccc(N(CC(=O)NCc2ccc(Cl)cc2)S(=O)(=O)c2c(C)noc2C)cc1,-5%,-27%
CC(=O)Nc1ccc(NC(=O)c2cnn(-c3ccccc3)c2C2CCN(C(=O)OC(C)(C)C)CC2)cc1,-2%,-9%
COc1ccc(Cl)cc1NC(=O)CSc1nccn1Cc1ccco1,u,u
Cc1ccccc1NS(=O)(=O)c1ccc2[nH]cc(C(=O)N3CCCC3)c(=O)c2c1,-3%,1%
Cc1cc(=O)n(Cc2ccc(F)cc2Cl)c2c1c(C)nn2-c1ccccc1,-18%,u
Cc1nc2c(c(C)nn2-c2ccccc2)c(C)c1CCC(=O)Nc1ccc(F)cc1,-16%,-25%
COc1ccc(NC(=O)c2c(NCc3cccs3)sc3c2CCCC3)c(OC)c1,u,u
Cn1c(C(=O)NCCc2ccccc2)cc2sc(Cl)cc21,31%[activator],14%

# 2 entries from above, as tab-separated lines.
compound	HTT promoter inh	PMP22 txn
CCC(=O)N1CCc2cc(S(=O)(=O)CCC(=O)NCc3ccc(C)cc3)ccc21	4%	0%
COc1ccc(C)cc1NC(=O)CN1C(=O)COc2ccc(S(=O)(=O)N3CCOCC3)cc21	6%	-6%

# More records follow.
SMILES,HTT promoter inh,PMP22 txn
O=C(c1cc2ccc3cccnc3c2[nH]1)N1CCN(c2cccc(C(F)(F)F)c2)CC1,1%,-23%
COc1ccccc1Nc1cc(C)nc2nc(-c3ccccc3)nn12,-13%,9%
CC(C)(C)C1CCc2c(sc(NC(=O)c3ccccc3F)c2C(=O)NCc2ccco2)C1 (stereo unspecified),-32%,-22%
CCOc1ccccc1/C=C/c1onc(C)c1S(=O)(=O)N1CCC(C(=O)N(CC)CC)CC1,-25%,u
COc1ccc(OC)c(NC(=O)c2cn3c4c(ccc(Cl)c4c2=O)OC(C)C3)c1 (stereo unspecified),-9%,u
Cc1ccc(CNC(=O)Cn2ccn(-c3ccc(F)c(F)c3)c(=O)c2=O)cc1,-8%,-19%
CCCN(CCC)C(=O)c1nn(C)c2c1CSc1ccc(C)cc1-2,-15%,-34%
CC(C)(C)C1CCc2c(sc(NC(=O)c3ccco3)c2C(=O)Nc2ccccc2Cl)C1 (stereo unspecified),-19%,12%
Cc1ccc(OCCn2c(CNc3ccccc3C)nc3ccccc32)cc1,17%,-28%
CCCOc1ccc(C2C(=O)N(C3CCCCC3)CC(=O)N2CCC2=CCCCC2)cc1OC (stereo unspecified),4%,u
O=C(Cc1ccc(NC(=O)N2CCCCc3ccccc32)cc1)NCc1ccccc1,u,u
Cc1cc(F)ccc1NC(=O)CN(C)S(=O)(=O)c1ccc(C(=O)N2CCOCC2)s1,-22%,4%
COc1ccccc1CNC(=O)CCCCn1c(=O)c2ccccc2n(Cc2c(C)cc(C)cc2C)c1=O,3%,-5%
Cc1ccc(-c2cn3cccnc3n2)cc1NC(=O)Nc1ccc(F)cc1,4%,u
COc1cccc(NC(=O)CSCc2cc(=O)c3ccc(C)c(C)c3[nH]2)c1,80%[activator],15%
Cc1cc(C)c(NC(=O)c2oc3c(c2C)-c2[nH]ncc2CC3)c(C)c1,-5%,-51%
O=C(NCc1ccco1)c1ccc2c(c1)N(Cc1ccccc1)C(=O)c1ccccc1S2,u,-27%
Fc1cccc(CSc2ccc(-c3cccs3)nn2)c1,51%[activator],-29%
COc1ccc(CNC(=O)CSc2ncc3c(n2)-c2cc(Cl)ccc2N(Cc2ccccc2)S3(=O)=O)cc1OC,-27%,-4%
COc1cc(/C=C(\C#N)c2nc3ccc(C)cc3[nH]2)ccc1OC(C)C,11%,-4%
COc1cccc(N2C(=O)CSC23C(=O)N(Cc2ccccc2)c2ccccc23)c1 (stereo unspecified),u,-24%
Cc1ccc(-n2ncc3c(NC4CCCCC4)ncnc32)cc1Cl,u,8%
CN(C)c1ccc(CNC(=O)c2ccc(Cn3c(SCc4ccccc4)nc4cccnc43)cc2)cc1,-16%,u
CCc1ccc(CN(C(=O)c2ccc(OC)cc2)C2CCS(=O)(=O)C2)cc1 (stereo unspecified),-21%,-4%
Cc1cccc(CN2C(=O)c3ccccc3Sc3ccc(C(=O)N4CCCC4)cc32)c1,u,-12%
# Other compounds
SMILES,HTT promoter inh,PMP22 txn
Cc1ccc(-n2ncc3c(N4CCCCCC4)ncnc32)cc1,-90%,u
CCOc1ccc(C2c3c(-c4cc(C)ccc4O)n[nH]c3C(=O)N2Cc2cccnc2)cc1OCC (stereo unspecified),-27%,2%
O=C(CC1NCCNC1=O)Nc1ccc(F)c(Cl)c1 (stereo unspecified),12%,-11%
CC(NC(=O)Cn1c(=O)oc2cc(S(=O)(=O)N3CCCCCC3)ccc21)c1ccccc1 (stereo unspecified),-14%,-3%
O=C(OCc1cccc(C(F)(F)F)c1)c1ccc(-c2nnn(Cc3ccc(F)cc3)n2)cc1,-14%,1%
CCOc1ccc(CNC(=O)c2cnc3sc(N4CCOCC4)nn3c2=O)cc1OC,-8%,2%
CCOc1ccc(/C=C/c2nc(C#N)c(NC(C)CC)o2)cc1 (stereo unspecified),-11%,-22%
COc1ccc(CCNS(=O)(=O)c2cc(-c3onc(C)c3C)ccc2OC)cc1OC,-4%,-17%
COc1ccccc1CNC(=O)CSc1ncc2c(n1)-c1cc(Cl)ccc1N(Cc1ccccc1)S2(=O)=O,-9%,u
COC(=O)c1sccc1S(=O)(=O)N1CCN(c2cccc(C)c2C)CC1,-19%,u
COc1ccc(C(CNC(=O)c2oc3cc(Br)ccc3c2C)N2CCCCC2)cc1 (stereo unspecified),-5%,-29%
Cc1cccc(OCC(=O)Nc2ccc(S(=O)(=O)Nc3onc(C)c3C)cc2)c1C,-8%,2%
CCOc1ccc(CCNC(=O)c2ccc3nc(CC)c(CC)nc3c2)cc1,-19%,u
CC(=O)c1cccc(NC(=O)CCn2nc(C)c(S(=O)(=O)N(C)C)c2C)c1,u,u
CCC(C)(Oc1ccc(C2(c3ccc(OC(C)(CC)C(=O)O)cc3)CCCCC2)cc1)C(=O)O (stereo unspecified),13%,x
Cc1ccccc1C(=O)Nc1ccc(C(=O)N2CCCC(N(C)C)c3ccccc32)cc1 (stereo unspecified),-23%,x
Cc1ncc(CO)c(C=O)c1O,5%,x
COc1cccc(C(=O)N(Cc2cccnc2)c2nc3c(OC)ccc(C)c3s2)c1OC,u,u
COc1ccc(CCNC(=O)c2ccc(Cn3c(=O)c4ccccc4n(Cc4cccc(F)c4)c3=O)cc2)cc1OC,u,u
O=C(Nc1ccc2oc(-c3ccc(Br)cc3)nc2c1)c1cc2ccccc2o1,36%[activator],-24%

# Entries from the list above that contain a furan ring, fused or not (13):
SMILES,HTT promoter inh,PMP22 txn
CCOc1ccc(S(=O)(=O)N(C(C)=O)c2ccc3oc(C)c(C(=O)OC)c3c2)cc1,2.5µM*,5.4µM*
Cc1ccccc1NC(=O)CSc1nc2ccc(NC(=O)c3ccco3)cc2s1,-16%,u
CCCc1cc(=O)oc2cc(C)c3c(-c4cccc(OC)c4)coc3c12,5%,-10%
N#C/C(=C\c1ccc(-c2ccc(Br)cc2)o1)C(=O)Nc1ccccc1O,9%,-1%
CC(C)c1ccc(CNc2nc(-c3ccco3)nn2S(=O)(=O)c2ccc3ccccc3c2)cc1,18%,7%
COc1ccc(C2c3c(oc4cc(C)cc(C)c4c3=O)C(=O)N2Cc2ccco2)cc1OC (stereo unspecified),0%,2%
COc1ccc(Cl)cc1NC(=O)CSc1nccn1Cc1ccco1,u,u
CC(C)(C)C1CCc2c(sc(NC(=O)c3ccccc3F)c2C(=O)NCc2ccco2)C1 (stereo unspecified),-32%,-22%
CC(C)(C)C1CCc2c(sc(NC(=O)c3ccco3)c2C(=O)Nc2ccccc2Cl)C1 (stereo unspecified),-19%,12%
Cc1cc(C)c(NC(=O)c2oc3c(c2C)-c2[nH]ncc2CC3)c(C)c1,-5%,-51%
O=C(NCc1ccco1)c1ccc2c(c1)N(Cc1ccccc1)C(=O)c1ccccc1S2,u,-27%
COc1ccc(C(CNC(=O)c2oc3cc(Br)ccc3c2C)N2CCCCC2)cc1 (stereo unspecified),-5%,-29%
O=C(Nc1ccc2oc(-c3ccc(Br)cc3)nc2c1)c1cc2ccccc2o1,36%[activator],-24%
